Sa growth inh: S. aureus growth inhibition. S. aureus RN4220 growth, OD600, 20 h, 42 °C; hits give low values. relative growth, % (test concentration not listed). 170,000 compounds, 0.53% hits;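 active = growth at 42 °C up to 50% and 20 or more points under that at 30 °C, or under 10% at both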;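 also: 300 nL library stock went into each well; scaled to the means of positive and negative controls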
GIV Gai3 FP: blocks GIV peptide binding to rat Galpha-i3 | Galpha-i3/FITC-GIV peptide fluorescence polarization, 90 min; hits give low values; scaled: aluminum fluoride 0%, vehicle 100% | percent of control (FP), % (concentration not given with the values) | 210,000 compounds, 0.42% hits;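 active = replicate mean at 85% of control or lower, very high polarization wells dropped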;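 also: wells of about 15 µL received 100 nL stock; the first replicate is given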
Target sequence (P08753 whole entry, looked up): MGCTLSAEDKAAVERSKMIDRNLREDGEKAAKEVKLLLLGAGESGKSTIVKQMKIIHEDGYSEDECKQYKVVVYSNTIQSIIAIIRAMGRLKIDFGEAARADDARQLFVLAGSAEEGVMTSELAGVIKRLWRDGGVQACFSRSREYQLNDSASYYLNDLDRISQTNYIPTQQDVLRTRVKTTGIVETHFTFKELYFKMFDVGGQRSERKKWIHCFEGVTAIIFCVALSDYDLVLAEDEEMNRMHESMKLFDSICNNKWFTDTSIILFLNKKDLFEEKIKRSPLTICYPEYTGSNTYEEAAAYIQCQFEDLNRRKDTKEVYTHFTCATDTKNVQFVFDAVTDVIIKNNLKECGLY
HCMV UL50-53 inh: inhibitors of HCMV UL50-UL53 nuclear egress complex interaction; HTRF UL50-UL53 interaction, normalized percent inhibition; inhibition, % (no concentration beside the values); 190,000 compounds, 0.15% hits;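 active = both replicates at 50% or more, plus weaker picks with an unusually low signal ratio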;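 also: stock transfer was 100 nL into about 20 µL; 0% = negative control wells and 100% = wells with untagged competitor protein; inactives centre near -12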
Sa growth inh second temp: second read-out of Sa growth inh, no call of its own (marks repeat the call); relative growth, %; measured here: growth at 30 °C;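 optical density after 20 h as mean of two plates; 100% = untreated growth and lower means inhibition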
The depositor's hits bear a star; . = no result given; & = joins results of further samples.

SMILES	Sa growth inh	Sa growth inh second temp	GIV Gai3 FP	HCMV UL50-53 inh
COC(=O)c1ccc(Oc2nc(N3CCOCC3)c(Cl)c3c2N(CC2CCCO2)CCS3(=O)=O)cc1 (stereo not drawn)	.	.	100	-18
Cc1ccc2nc(SCC(=O)N3CCCCC3)c(C#N)cc2c1	63	82	106	-45
Cc1cc2c(cc3n2CC(C)(C(=O)NC2CCCCC2)N(CCCN2CCCCC2)C3=O)o1 (stereo not drawn)	.	.	102	-10
N#C/C(=C\c1cn(Cc2ccccc2C#N)c2ccccc12)C(=O)NCc1cccs1	85	90	103	-32
COc1ccccc1CNC(=O)C(CC(C)C)NC(N)=O (stereo not drawn)	88	93	.	6
CC(C)N(CC(N)=O)c1nc(-c2cccs2)nc2ccccc12	76	82	.	-50
CCCc1nc(S(=O)(=O)c2ccc(C)cc2)c(NC)o1	85	95	.	0
Cn1cnnc1SCc1ccc(C(=O)O)cc1	93	93	.	-19
CC1(C)OC(=O)C(=Cc2ccc(C#N)cc2)C(=O)O1	93	90	100	-27
Cc1ccc(-n2nc(N3CCCN(C(=O)CN4C(=O)C(C)Oc5ccccc54)CC3)ccc2=O)cc1 (stereo not drawn)	.	.	105	-47
COc1ccc(OC)c(C2(O)CSC(=Nc3cccnc3)N2Cc2ccco2)c1 (stereo not drawn)	92	86	.	-26
Nc1ccccc1NC(=O)c1nc2ccccc2nc1C(O)C(O)CO (stereo not drawn)	103	92	102	.
COC(=O)c1cc(S(=O)(=O)NCC2CCN(Cc3cccc(Cl)c3)CC2)c[nH]1	99	98	107	23
COc1ccccc1CNC(=O)COCc1cc(-c2cccs2)on1	109	73	102	.
COc1ccc(CCNC(=O)c2ccc3c(=O)n(Cc4ccc5c(c4)OCO5)c(=O)[nH]c3c2)cc1OC	95	88	100	-5
COc1ccc(C(NC(=O)Cc2cc3ccccc3[nH]2)C(=O)Nc2ccc3c(c2)OCCO3)cc1 (stereo not drawn)	99	81	101	.
O=C(CSc1nc(-c2ccc3c(c2)OCO3)nc2cc(=O)[nH]n12)Nc1ccccc1	.	.	98	-23
O=c1[nH]c(CSc2nnc3ccccn23)nc2ccccc12	99	95	.	-17
O=C(Cn1cc(NC(=O)c2cc(-c3ccc(F)cc3)no2)cn1)NCc1ccco1	102	70	100	-24
CN1CCCN(Cc2ccccc2)CC1	110	94	109	4
Cc1nn2c(=O)cc(COC(=O)c3cccc(NC(=O)COc4ccccc4C)c3)nc2s1	80	88	98	.
CC(=O)c1ccccc1OCC(O)Cn1c(CO)nc2ccccc21 (stereo not drawn)	93	92	101	-5
COc1ccc(-c2nc3nc[nH]n3c2Nc2ccc(C)cc2)cc1	.	.	100	-26
CC(=O)Nc1nc(NC(C)=O)nc(-c2ccccn2)n1	98	86	99	.
Cc1cc(NS(=O)(=O)c2ccc(NC(=O)c3ccco3)cc2)no1	91	90	108	31

Part of the list above, with two lines to a compound.
Values run as follows: Sa growth inh, Sa growth inh second temp, GIV Gai3 FP, HCMV UL50-53 inh
Cn1cnnc1SCc1ccc(C(=O)O)cc1
→ 93, 93, ., -19
CC1(C)OC(=O)C(=Cc2ccc(C#N)cc2)C(=O)O1
→ 93, 90, 100, -27
Cc1ccc(-n2nc(N3CCCN(C(=O)CN4C(=O)C(C)Oc5ccccc54)CC3)ccc2=O)cc1 (stereo not drawn)
→ ., ., 105, -47

Continuation:
SMILES	Sa growth inh	Sa growth inh second temp	GIV Gai3 FP	HCMV UL50-53 inh
COc1ccccc1NC(=O)C(C)O/N=C/c1ccccc1 (stereo not drawn)	88	83	.	-15
NCc1ccc(Oc2ccc(F)cc2)cc1	103	83	.	-24
Cc1cc2[nH]c(=O)c(=O)[nH]c2cc1S(=O)(=O)N1CCCCC1	88	98	107	14
O=C1/C(=C\c2ccc(F)cc2)CN(Cc2ccccc2)C/C1=C\c1ccc(F)cc1	96	70	.	-10
Nc1scc[n+]1CC(=O)Nc1ccccc1	122	91	.	-5
C=CCNC(=O)C(CC)N1CCN(Cc2ccc(F)cc2)C(=O)C1=O (stereo not drawn)	.	.	101	-30
O=C(NCCN1CCOCC1)c1cnc2sc3c(n2c1=O)CCCCC3	.	.	107	-23
CC1=C(C(=O)Nc2ccccc2)C(c2ccncc2)n2nc(SCc3ccccc3Cl)nc2N1 (stereo not drawn)	105	96	95	-79
CCCCN(CC)C(=O)CCCn1c(=O)c2cccn2c2ccccc21	108	91	101	-6
O=C(Nc1ccc(Cl)cc1C(F)(F)F)c1cc(S(=O)(=O)N2CCOCC2)ccc1F	130	99	107	.
O=C(Nc1ccc(F)c(F)c1)C1Nc2cc(F)ccc2S(=O)(=O)N1 (stereo not drawn)	.	.	102	-9
C=CCNc1oc(-c2ccc(S(=O)(=O)N(C)C)cc2)nc1C#N	.	.	107	5
C=CCN1C(=O)c2ccccc2Sc2ccc(C(=O)N3CCCC3)cc21	108	92	103	0
c1csc(-c2nc3ccccn3c2Nc2ccc3c(c2)OCCO3)c1	95	83	101	50
Cc1nn(Cc2c(Cl)cccc2Cl)c(Cl)c1CN1CCN(CC(=O)N2CCCC2)CC1	88	96	.	1
O=C(O)CCC(=O)N1CCc2cc(S(=O)(=O)N(CCc3ccccc3)Cc3ccccc3)ccc21	121	90	104	3
COCCn1nnc2cc(S(=O)(=O)N3CCCCC3C(=O)NCc3ccccc3)ccc21 (stereo not drawn)	.	.	109	-12
CCOc1ccc(-c2nnc(SC(F)F)n2CCC(=O)OCc2ccc(C#N)cc2)cc1	141	82	.	-11
CCCCOc1ccc(C2(C(=O)O)CCCC2)cc1	115	91	102	-24
CCn1cc(C(=O)N2CCN(c3ccccc3OC)CC2)c2cc(OC)c(OC)cc2c1=O	99	91	101	-8
CCOC(=O)CC1Sc2ccccc2N=C1SCCS(=O)(=O)c1ccc(Cl)cc1 (stereo not drawn)	99	91	102	-18
CCNS(=O)(=O)c1ccc2c(c1)C(=O)c1cc(S(=O)(=O)NCC)ccc1-2	107	93	103	.
CCOc1cc(C2Nc3ccccc3NC3=C2C(=O)CC(c2ccccc2)C3)cc(Br)c1O (stereo not drawn)	.	.	104	-16
CN1CCCN(C(=O)c2ccc3[nH]c4c(c3c2)CCCC4)CC1	89	95	.	-7
CN1C(=O)OC(C)(C)C1=O	92	86	.	-49&-32

Random excerpt: five entries already listed
SMILES	Sa growth inh	Sa growth inh second temp	GIV Gai3 FP	HCMV UL50-53 inh
C=CCN1C(=O)c2ccccc2Sc2ccc(C(=O)N3CCCC3)cc21	108	92	103	0
C=CCNC(=O)C(CC)N1CCN(Cc2ccc(F)cc2)C(=O)C1=O (stereo not drawn)	.	.	101	-30
COc1ccc(C(NC(=O)Cc2cc3ccccc3[nH]2)C(=O)Nc2ccc3c(c2)OCCO3)cc1 (stereo not drawn)	99	81	101	.
CC(=O)c1ccccc1OCC(O)Cn1c(CO)nc2ccccc21 (stereo not drawn)	93	92	101	-5
COc1ccccc1CNC(=O)COCc1cc(-c2cccs2)on1	109	73	102	.

3 entries from above, with values under each structure.
Every second line gives: Sa growth inh | Sa growth inh second temp | GIV Gai3 FP | HCMV UL50-53 inh
> CCOc1ccc(-c2nnc(SC(F)F)n2CCC(=O)OCc2ccc(C#N)cc2)cc1
 : 141 | 82 | . | -11
> Nc1scc[n+]1CC(=O)Nc1ccccc1
 : 122 | 91 | . | -5
> COc1ccccc1NC(=O)C(C)O/N=C/c1ccccc1 (stereo not drawn)
 : 88 | 83 | . | -15

Additional entries.
SMILES	Sa growth inh	Sa growth inh second temp	GIV Gai3 FP	HCMV UL50-53 inh
COc1ccc(OC)c(CNC(=O)c2ccc3noc(-c4ccccc4)c3c2)c1	.	.	97	-18
COc1cccc(OC)c1C(=O)NN1CCCCC1	99	96	106	0
NC(=O)N/N=C1\CCS(=O)(=O)c2ccc(F)cc21	94	95	.	-45
CCSc1n[nH]c2nc3ccccc3n12	76	75	102&107	-16
O=C(O)c1nnn(Cc2ccc(Br)cc2)c1C(=O)O	.	.	99	-13
Cc1cc2nc(COC(=O)c3ccccc3F)cc(=O)n2o1	.	.	100	-19
CC(C)c1ccccc1N=C=S	86	92	.	-12
CC1CCCC(C)N1C(=O)COC(=O)C1CC1 (stereo not drawn)	94	86	.	-35
Cc1ccc(C)c(N2CCN(S(=O)(=O)c3cc(Br)cc4c3N(C(=O)C3CC3)CC4)CC2)c1	106	91	103	5
CC1CCN(Cc2c(O)ccc3c2O/C(=C\c2ccccc2)C3=O)CC1	97	86	188	-30
COc1cccc(/C=N/NC(=O)c2ccccn2)c1	86	87	102	-55
CC(C)N(CCCn1cccc1)C(=S)Nc1cccc(C(F)(F)F)c1	98	82	100	.
Cc1cc(C(=O)N2CCN(Cc3ccc4c(c3)OCO4)CC2)cs1	103	105	113	22
CN(C)c1nc(N)c2c(ncn2C)n1	.	.	104	-18
COc1ccc(N2CCN(c3oc(/C=C/c4ccccc4OC)nc3C#N)CC2)cc1	110	82	104	-17
Cc1onc(-c2ccccc2)c1CNC(=O)C1CCC1	94	85	96	24
Cc1nn(C)c2nc(OCC(=O)NC3CCCC3)cc(C(F)(F)F)c12	.	.	103	-32
CN(C)CC(O)COc1cccc2ccccc12 (stereo not drawn)	100	96	.	-10
CC(NC(=O)COc1ccc(Oc2ccccc2)cc1)C(=O)O (stereo not drawn)	109	98	.	-2
Cc1cc(C)c2c(n1)sc1c(N3CCN(CCO)CC3)ncnc12	128	97	104	18
C=Cc1ccc(CSc2nc(-c3ccccc3C)nc3c2Cc2c(CO)cnc(C)c2O3)cc1	101	106	108	.
COc1ccc2c(Sc3ccc(Cl)cc3)c(C(=O)NCCCN3CCCCC3)[nH]c2c1	118	55	103	-17
COC(=O)c1ccc(NC(=O)c2cc(S(=O)(=O)N3CCOCC3)cn2C)cc1	93	83	101	-20
C=CCn1c(SCC(=O)NC2CCCCC2)nc2sc3c(c2c1=O)CCC3	.	.	104	-8
CC1(C)C(=O)N(CC(=O)Nc2cccc(F)c2)c2ccccc21	.	.	95	13

3 of the entries above in order of their number in GIV Gai3 FP, largest number first.
SMILES	GIV Gai3 FP
Cc1cc2nc(COC(=O)c3ccccc3F)cc(=O)n2o1	100
COc1ccc(OC)c(CNC(=O)c2ccc3noc(-c4ccccc4)c3c2)c1	97
CC1(C)C(=O)N(CC(=O)Nc2cccc(F)c2)c2ccccc21	95

The listing continues.
SMILES	Sa growth inh	Sa growth inh second temp	GIV Gai3 FP	HCMV UL50-53 inh
COCCNS(=O)(=O)c1ccc2c(c1)oc(=O)n2CC(=O)OC	.	.	95	-2
COc1cc([N+](=O)[O-])ccc1-c1ccc(/C=C2\C(=O)N(c3cccc(Br)c3)N=C2C)o1	.	.	101	-32
CCc1ccccc1NC(=O)NC(CC)Cn1nnc2ccccc2c1=O (stereo not drawn)	104	94	105	0
N#C/C(=C/c1ccco1)c1ccc2ccccc2c1	51	54	117	-33
Cc1ccccc1OCC(=O)Nc1c(C)ccc2nsnc12	96	94	105	-30
Cc1ccccc1NC(=O)CC1SC(=O)NC1=O (stereo not drawn)	.	.	99	-28
Cc1cccc(NC(=O)C2CCCN(S(=O)(=O)c3cnc[nH]3)C2)c1C (stereo not drawn)	106	92	105	-15
CN(C)C(=O)Cc1coc2ccc3ccccc3c12	88	80	105	2
O/N=C/c1ccoc1	89	96	103	-6
Cc1ccc(O)c(C=Nc2cc(C)on2)c1	114	116	98	-9
CCCCn1c2ccccc2c2nnc(SCc3ccccc3)nc21	151	112	104	-4
CCOC(=O)Cc1cc(=O)oc2cc(O)cc(O)c12	.	.	99	-1
CCC(=O)Nc1c(C)nc(Nc2ccc(C)cc2)nc1Nc1ccc(C)cc1	.	.	103	6
COc1ccc(N2CCN(C(=O)c3c(C)oc4ncn(CC(C)C)c(=O)c34)CC2)cc1	101	92	109	.
CC1Cn2c(CCc3ccccc3)nnc2S1 (stereo not drawn)	115	100	103	0
COc1ccccc1OCCCn1c(C2CCCO2)nc2ccccc21 (stereo not drawn)	.	.	107	4
CCOc1ccc(-c2noc(N3CCC(C(=O)NCC4CCCO4)CC3)n2)cc1OC (stereo not drawn)	.	.	99	1
O=C(Nc1ccccc1N(C(=O)C1CC1)S(=O)(=O)c1cccs1)C1CC1	125	101	.	0
O=C(CN1CCN(C/C=C/c2ccccc2)CC1)Nc1cccc(Cl)c1	102	83	104	-18
COc1ccc(C(=O)NC(c2ccccc2)c2ccccc2)cc1	117	108	.	-3
O=C(CC1CCCC1)N1CCC2(CC1)Nc1cc(F)ccc1-n1cccc12	.	.	106	-39
O=C(N/N=C1\C2CN3CCN(C2)CC1(Cc1ccccc1)C3)c1ccc(F)cc1	101	97	103	0
